FGF22 binding: FGF22 (human) thermal shift binding; recombinant FGF22 thermal shift, SYPRO orange fluorescence; percent of sucrose octasulfate shift, DMSO zero; 340,000 tested, 1.5% active; calls only at 9.99 µM;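 active = melting point raised past a set limit in the mean and every replicate; three in four hits are not shown here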
Target sequence (Q9HCT0 whole entry, looked up): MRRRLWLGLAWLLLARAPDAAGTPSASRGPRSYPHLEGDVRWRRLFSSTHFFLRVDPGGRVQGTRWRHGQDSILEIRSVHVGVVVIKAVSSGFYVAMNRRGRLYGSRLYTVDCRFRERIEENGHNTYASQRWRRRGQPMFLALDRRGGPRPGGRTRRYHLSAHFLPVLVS
Ecoli rRNA inh: inhibitors of bacterial rRNA selective over humanized ribosomes; E. coli WT GFP vs humanized-ribosome RFP mutants, fluorescence, 24 h; active compounds read low; DMSO median 0, no signal -100; GFP signal change (wild-type ribosome), % (concentration not given with the values); 350,000 tested, 1.6% active;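 active = significant combined selectivity score with lowered wild-type GFP, culture density cut under 30%, mutant RFP and density less affected; inactive = any of these conditions unmet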; note: one replicate is shown; some compounds called inactive have numbers as strong as hits
Ecoli rRNA inh OD600: further read-out of Ecoli rRNA inh, marked with its call; OD600 change, %; measured here: OD600 growth;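 optical density of the mix in the first replicate; 0 = DMSO median and -100 = no signal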
Ecoli rRNA inh RFP: further read-out of Ecoli rRNA inh, marked with its call; RFP signal change, %; measured here: RFP humanized mutant strains;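 first replicate; 0 = DMSO median and -100 = no signal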
The depositor's hits bear a star; i = inactive; + = active, no number. These rows are one share of the data; rates above refer to the full screens.

#	molecule	FGF22 binding	Ecoli rRNA inh	Ecoli rRNA inh OD600	Ecoli rRNA inh RFP
1	C[C@@H]1CCCCO[C@H](CN(C)C(=O)CCCN(C)C)[C@H](C)CN([C@@H](C)CO)C(=O)c2cc(NC(=O)Nc3ccc4c(c3)OCO4)ccc2O1	i	3	9	-5.7
2	C[C@@H]1CN([C@@H](C)CO)C(=O)c2cc(NC(=O)CCC(F)(F)F)ccc2O[C@@H]1CN(C)S(=O)(=O)c1cn(C)cn1	i	2	4	-0.6
3	COc1cccc(-c2cnc3c(c2)C(=O)N([C@H](C)CO)C[C@H](C)[C@H](CN(C)C(=O)NC2CCCCC2)O3)c1	i	-7	-15	5.1
4	CN(C)C(=O)C[C@@H]1CC[C@@H]2[C@H](COC[C@H](O)CN2Cc2ccc(C(F)(F)F)cc2)O1	i	-4	7	-0.4
5	N#C[C@H]1[C@@H](c2ccccc2-c2cccc(F)c2)[C@H](CO)N1C(=O)C1CCC1	i	-7	-13	-1.3
6	C[C@H]1CCCCO[C@H](CN(C)Cc2ccc(C(F)(F)F)cc2)[C@@H](C)CN([C@@H](C)CO)C(=O)c2cc(NS(=O)(=O)c3ccc(F)cc3)ccc2O1	i	0	-12	4.4
7	C[C@@H]1CN([C@H](C)CO)C(=O)c2cc(C3=CCCCC3)cnc2O[C@H]1CN(C)C(=O)Cc1ccccc1	i	-8	-4	3.2
8	CCNC(=O)C[C@@H]1CC[C@@H]2[C@H](COc3ccc(NS(=O)(=O)c4ccccc4C)cc3C(=O)N2C)O1	i	-4	-3	0.2
9	CO[C@@H]1CN(C)C(=O)c2cc(NC(=O)C3CCOCC3)ccc2OC[C@@H](C)N(Cc2nccs2)C[C@H]1C	i	2	2	-2.9
10	COCC(=O)N1CC[C@@H]2[C@H](CO)Nc3ccc(C#Cc4ccccc4)cc3[C@@H]21	i	-7	-13	3.2
11	C[C@H]1CN([C@@H](C)CO)C(=O)c2cccc(NC(=O)Nc3cccc4ccccc34)c2O[C@H]1CN(C)CC1CC1	i	1	-8	4.6
12	C[C@H]1CN([C@@H](C)CO)C(=O)c2cc(C#CCc3ccccc3)cnc2O[C@H]1CN(C)C(=O)C1CCOCC1	i	4	5	-2.4
13	COc1ccc(S(=O)(=O)Nc2ccc3c(c2)CC(=O)N([C@@H](C)CO)C[C@H](C)[C@H](CN(C)Cc2ccc4c(c2)OCO4)O3)cc1	i	-4	-18	4.7
14	COCC(=O)N1[C@H](C(=O)Nc2ccccc2)[C@@H](CO)[C@@H]2Cn3c(ccc(-c4cccnc4)c3=O)[C@@H]21	i	2	8	0.0
15	COc1ccc(CN(C)C[C@H]2Oc3ccc(NC(=O)C4CC4)cc3C(=O)N([C@H](C)CO)C[C@H]2C)cc1	i	6	9	-0.1
16	COC(=O)c1cc2c(c3c4cc(C)ccc4n(S(=O)(=O)c4cccc(C)c4)c13)C(=O)N(Cc1ccccc1OC)C2	i	1	4	2.8
17	COc1ccc2c3c([nH]c2c1)[C@@H](CO)N(C(=O)C1CC1)CC31CCN(Cc2nccs2)CC1	i	-7	0	-4.0
18	C[C@H](CO)N1C[C@H](C)[C@H](CN(C)C)OCCCC[C@H](C)Oc2ccc(NC(=O)Nc3ccc4c(c3)OCO4)cc2C1=O	i	1	-5	1.3
19	C[C@@H]1CN([C@H](C)CO)C(=O)Cc2cc(NC(=O)C3CC3)ccc2O[C@@H]1CN(C)S(C)(=O)=O	i	4	3	-0.5
20	C[C@H]1CN([C@@H](C)CO)C(=O)c2cccc(NC(=O)C3CCOCC3)c2O[C@@H]1CN(C)Cc1ccc(Oc2ccccc2)cc1	i	-5	-5	2.5
21	C[C@@H]1CN([C@H](C)CO)C(=O)c2cc(NC(=O)CCCCCC(=O)Nc3ccccc3N)ccc2O[C@H]1CN(C)Cc1ccc(-c2ccccc2)cc1	i	-3	2	11
22	COc1cccc(CN2[C@H](CO)[C@@H]3c4ccccc4N(C(=O)C4CC4)C[C@@H]32)c1	i	-2	-15	1.8
23	C[C@@H]1CN([C@H](C)CO)C(=O)c2cc(C#Cc3ccc(F)cc3)cnc2O[C@H]1CN(C)C(=O)c1ccccc1F	i	0	-17	21
24	CO[C@@H]1CN(C)C(=O)c2ccc(NS(=O)(=O)c3cn(C)cn3)cc2OC[C@H](C)N(CC2CC2)C[C@@H]1C	i	3	5	-4.8
25	COc1cccc(C(=O)Nc2ccc3c(c2)C(=O)N(C)[C@H]2CC[C@H](CC(=O)NCCCN4CCOCC4)O[C@H]2CO3)c1	i	2	2	-2.8
26	C[C@H](CO)N1C[C@H](C)[C@H](CN(C)S(C)(=O)=O)Oc2c(NC(=O)c3cnccn3)cccc2C1=O	i	2	10	-1.4
27	C[C@@H]1CN([C@@H](C)CO)C(=O)c2cc(-c3ccccc3)cnc2O[C@H]1CN(C)Cc1cccnc1	i	3	12	-3.2
28	Cc1noc(C)c1S(=O)(=O)Nc1ccc2c(c1)C(=O)N([C@@H](C)CO)C[C@H](C)[C@H](CN(C)C(=O)NC1CCCCC1)OCCCC[C@@H](C)O2	i	-1	-4	-0.5
29	O=C(C[C@@H]1C=C[C@H](NC(=O)c2ccccc2)[C@H](CO)O1)NCc1ccc(Oc2ccccc2)cc1	i	-1	-23	0.9
30	C[C@H]1CN([C@@H](C)CO)C(=O)Cc2cc(NC(=O)Nc3ccc(F)cc3)ccc2O[C@H]1CN(C)S(C)(=O)=O	i	4	3	-1.5
31	COc1ccc2c3c(n(C)c2c1)[C@@H](CO)N(Cc1ccccc1)CC31CN(C(=O)C2CC2)C1	i	-4	-3	1.6
32	O=C(NCC[C@@H]1CC[C@@H](NS(=O)(=O)c2ccccc2)[C@@H](CO)O1)c1ccc2c(c1)OCO2	+	-1	0	-2.0
33	C[C@@H]1CN([C@H](C)CO)C(=O)c2cc(-c3ccccc3)cnc2O[C@@H]1CN(C)Cc1cccnc1	i	2	12	-2.9
34	CCCC(=O)Nc1ccc2c(c1)OC[C@H](C)N(CC1CCOCC1)C[C@@H](C)[C@@H](OC)CN(C)C2=O	i	2	-2	-2.5
35	CCNC(=O)C[C@@H]1C=C[C@@H](NC(=O)NC2CCCCC2)[C@@H](CO)O1	i	4	9	0.4
36	C[C@H](CO)N1C[C@H](C)[C@@H](CN(C)S(C)(=O)=O)Oc2ncc(C#CC3CC3)cc2C1=O	i	5	19	-1.0
37	CC=Cc1ccc2n(c1=O)C[C@H]1[C@H](CO)[C@@H](C(=O)NCC)N(C(=O)CC3CC3)[C@@H]21 (mixture of isomers)	i	2	-3	-5.4
38	CCCNC(=O)C[C@@H]1C[C@H]2c3cc(NC(=O)CC4CC4)ccc3O[C@H]2[C@H](CO)O1	i	1	-4	5.0
39	C[C@@H]1CN([C@@H](C)CO)C(=O)Cc2cc(NC(=O)Nc3ccc4c(c3)OCO4)ccc2O[C@@H]1CN(C)C(=O)Nc1ccc2c(c1)OCO2	i	-8	-6	-1.0
40	O=C(N[C@H]1CC[C@H](CCNS(=O)(=O)c2ccc(Cl)cc2)O[C@@H]1CO)c1cnccn1	i	-9	-6	8.7
41	CC(=O)N(C)C[C@H]1Oc2cc(C#Cc3ccccn3)ccc2S(=O)(=O)N([C@@H](C)CO)C[C@@H]1C	i	3	2	-0.1
42	O=C(C[C@H]1CC[C@@H]2[C@H](COC[C@H](O)CN2Cc2cccc(C(F)(F)F)c2)O1)NCCc1ccncc1	i	1	2	-4.3
43	CN1C(=O)c2cc(NC(=O)c3cnccn3)ccc2OC[C@@H]2O[C@@H](CC(=O)O)CC[C@H]21	i	-2	4	-3.9
44	O=C(Nc1cccc(F)c1)N1C[C@@H]2[C@H](c3ccccc31)[C@@H](CO)N2C(=O)Cc1ccccc1	i	-49	-76	-9.5
45	O=C(c1cccc(F)c1)N1CC2(C1)[C@@H](c1ccccc1)[C@H](CO)N2Cc1ccccn1	i	-2	13	1.7
46	O=C(CC1CC1)N1CC2(C1)[C@H](c1ccccc1)[C@@H](CO)N2Cc1ccccn1	i	4	8	1.5
47	C/C=C/c1ccc([C@H]2[C@@H](CO)N3C(=O)CN(C(=O)Nc4cccc(OC)c4)C[C@H]23)cc1	i	-1	16	-3.1
48	CN(C)CC(=O)Nc1ccc2c(c1)[C@H]1C[C@H](CC(=O)NCC3CC3)O[C@@H](CO)[C@H]1O2	i	2	9	-1.9

The closing 3 compounds of the part above lead into the next.
#	molecule	FGF22 binding	Ecoli rRNA inh	Ecoli rRNA inh OD600	Ecoli rRNA inh RFP
46	O=C(CC1CC1)N1CC2(C1)[C@H](c1ccccc1)[C@@H](CO)N2Cc1ccccn1	i	4	8	1.5
47	C/C=C/c1ccc([C@H]2[C@@H](CO)N3C(=O)CN(C(=O)Nc4cccc(OC)c4)C[C@H]23)cc1	i	-1	16	-3.1
48	CN(C)CC(=O)Nc1ccc2c(c1)[C@H]1C[C@H](CC(=O)NCC3CC3)O[C@@H](CO)[C@H]1O2	i	2	9	-1.9
49	O=C(C[C@@H]1CC[C@@H]2[C@H](COC[C@H](O)CN2C(=O)Nc2ccc3c(c2)OCO3)O1)N1CCN(c2ccccc2)CC1	i	4	30	-2.7
50	CCCNC(=O)Nc1ccc2c(c1)C(=O)N(C)C[C@@H](OC)[C@@H](C)CN(Cc1cncnc1)[C@@H](C)CO2	i	1	11	-1.3
51	C[C@@H]1CN([C@H](C)CO)C(=O)c2cccc(NS(=O)(=O)c3ccc(Cl)cc3)c2O[C@H]1CN(C)C(=O)Nc1ccccc1	i	-7	-6	2.3
52	COc1ccc(S(=O)(=O)N(C)C[C@H]2OCCCC[C@H](C)Oc3ccc(NC(=O)Nc4ccccc4)cc3C(=O)N([C@H](C)CO)C[C@@H]2C)cc1	i	-2	-4	-1.7
53	O=C(C[C@@H]1C[C@H]2c3cc(NC(=O)C4CCOCC4)ccc3O[C@H]2[C@@H](CO)O1)NCc1ccccc1F	i	1	5	-1.8
54	C/C=C/c1cnc2c(c1)C(=O)N([C@H](C)CO)C[C@@H](C)[C@H](CN(C)S(=O)(=O)c1ccccc1F)O2	i	-3	-2	-3.7
55	C[C@H](CO)N1C[C@H](C)[C@@H](CN(C)S(=O)(=O)c2cn(C)cn2)Oc2ccc(NC(=O)Cc3cn(C)c4ccccc34)cc2C1=O	i	-2	6	0.2
56	C[C@H](CO)N1C[C@H](C)[C@H](CN(C)S(C)(=O)=O)Oc2c(NS(C)(=O)=O)cccc2C1=O	i	5	2	-0.1
57	CC(C)NC(=O)N(C)C[C@H]1Oc2cc(-c3cncnc3)ccc2S(=O)(=O)N([C@@H](C)CO)C[C@H]1C	i	3	3	-2.2
58	C[C@H]1CN([C@@H](C)CO)C(=O)c2ccccc2-c2ccccc2CO[C@H]1CN(C)S(=O)(=O)c1cn(C)cn1	i	-1	4	0.2
59	C[C@H]1CN([C@@H](C)CO)S(=O)(=O)c2ccc(C#Cc3ccccc3)cc2O[C@H]1CN(C)C(=O)c1ccccn1	i	3	-11	16
60	O=C(c1ccccc1)N1C[C@@H]2[C@H](c3ccccc31)[C@@H](CO)N2C(=O)c1cccc(F)c1	i	-2	3	2.8
61	Cc1noc(C)c1NC(=O)N(C)C[C@@H]1Oc2ccc(NS(C)(=O)=O)cc2CC(=O)N([C@H](C)CO)C[C@@H]1C	i	-1	0	0.2
62	C[C@@H]1CN([C@@H](C)CO)C(=O)Cc2cc(NC(=O)Nc3ccc(C(F)(F)F)cc3)ccc2O[C@H]1CN(C)Cc1ccc(-c2ccccc2)cc1	i	4	5	-1.2
63	C[C@@H]1CN([C@H](C)CO)C(=O)Cc2cc(NC(=O)CCN3CCOCC3)ccc2O[C@@H]1CN(C)CC1CCCCC1	i	3	9	-0.8
64	O=C(C[C@H]1CC[C@@H]2[C@H](COC[C@@H](O)CN2C(=O)Nc2cc(Cl)cc(Cl)c2)O1)NCC1CC1	i	-23	-19	-1.2
65	CNC[C@H]1Oc2c(NC(=O)Nc3ccc(F)cc3)cccc2C(=O)N([C@H](C)CO)C[C@@H]1C	i	0	8	-1.4
66	C[C@H]1CN([C@@H](C)CO)C(=O)c2c(c3ccccc3n2C)-c2ccccc2CO[C@H]1CN(C)C(=O)Nc1ccc(-c2ccccc2)cc1	i	1	12	-5.9
67	C[C@H](CO)N1C[C@H](C)[C@@H](CN(C)Cc2ccccc2)OCCCC[C@H](C)Oc2ccc(NC(=O)Nc3cccc4ccccc34)cc2C1=O	i	-2	-13	5.3
68	CC(C)C#Cc1cnc2c(c1)C(=O)N([C@@H](C)CO)C[C@H](C)[C@H](CN(C)C(=O)Nc1ccccc1F)O2	i	-2	8	3.7
69	C[C@@H]1CN([C@@H](C)CO)C(=O)c2cc(C#C[C@@H](C)O)cnc2O[C@@H]1CN(C)C(=O)c1ccncc1	i	4	9	-2.0

Retrieved by compound from above (four):
#	molecule	FGF22 binding	Ecoli rRNA inh	Ecoli rRNA inh OD600	Ecoli rRNA inh RFP
65	CNC[C@H]1Oc2c(NC(=O)Nc3ccc(F)cc3)cccc2C(=O)N([C@H](C)CO)C[C@@H]1C	i	0	8	-1.4
66	C[C@H]1CN([C@@H](C)CO)C(=O)c2c(c3ccccc3n2C)-c2ccccc2CO[C@H]1CN(C)C(=O)Nc1ccc(-c2ccccc2)cc1	i	1	12	-5.9
69	C[C@@H]1CN([C@@H](C)CO)C(=O)c2cc(C#C[C@@H](C)O)cnc2O[C@@H]1CN(C)C(=O)c1ccncc1	i	4	9	-2.0
68	CC(C)C#Cc1cnc2c(c1)C(=O)N([C@@H](C)CO)C[C@H](C)[C@H](CN(C)C(=O)Nc1ccccc1F)O2	i	-2	8	3.7

Source: PubChem BioAssay (Broad Institute)
